Screening results: PubChem BioAssay, Broad Institute
A1 apoptosis 2: compounds inhibiting A1, read as caspase activation; AID 2465; 24,000 tested, under 10 active; caspase activation, % (test concentration not listed); MEF A1-2A-BIM cells, caspase-Glo luminescence, 3 h; percent of clofoctol response, DMSO zero; in the data active means caspase activation above about 5.9%;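 further: wells of about 30 µL received 50 nL stock; the first replicate is given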
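Material: mouse embryonic fibroblasts co-expressing A1 and BIM (A1-2A-BIM), primed for A1 dependence / Quantity: 2500 cells/well / Buffer or medium: RPMI-1640 growth medium with 10% FBS / Doses: 50 nL compound per well, pinned / Schedule: 3 h compound exposure at 37 °C / Signal: Caspase-Glo luminescence (DEVD substrate) / Measure: Caspase-3/7 activation, seen as rise in luminescence signal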
Starred values were filed as active, the others as inactive.

smiles: Cc1ccc(S(=O)(=O)Nc2cccc3c2O[C@@H](CN(C)Cc2ccc(Cl)c(Cl)c2)[C@H](C)CN([C@@H](C)CO)C3=O)cc1
  A1 apoptosis 2: -0.1
smiles: Cc1noc(C)c1NC(=O)Nc1cccc2c1O[C@H](CN(C)C(=O)Nc1ccccc1)[C@H](C)CN([C@@H](C)CO)C2=O
  A1 apoptosis 2: 0.5
smiles: Cc1noc(C)c1NC(=O)Nc1ccc2c(c1)C(=O)N([C@@H](C)CO)C[C@H](C)[C@H](CN(C)Cc1ccccc1)OCCCC[C@@H](C)O2
  A1 apoptosis 2: -0.4
smiles: C[C@@H]1CCCCO[C@@H](CN(C)S(=O)(=O)c2cccs2)[C@@H](C)CN([C@@H](C)CO)C(=O)c2cc(NC(=O)Nc3cccc4ccccc34)ccc2O1
  A1 apoptosis 2: -0.6
smiles: C[C@H]1CN([C@@H](C)CO)C(=O)c2cccc(NC(=O)NC3CCCCC3)c2O[C@H]1CN(C)Cc1ccncc1
  A1 apoptosis 2: -0.1
smiles: Cc1noc(C)c1NC(=O)N(C)C[C@H]1Oc2ccc(NS(=O)(=O)c3ccc(F)cc3)cc2CC(=O)N([C@@H](C)CO)C[C@@H]1C
  A1 apoptosis 2: 1.3
smiles: C[C@@H]1CN([C@@H](C)CO)C(=O)c2cc(NS(=O)(=O)c3cccs3)ccc2O[C@@H](C)CCCCO[C@@H]1CN(C)S(=O)(=O)c1ccccc1
  A1 apoptosis 2: 0.8
smiles: C[C@H](CO)N1C[C@H](C)[C@@H](CN(C)Cc2ccc3c(c2)OCO3)OCCCC[C@H](C)Oc2ccc(NC(=O)Nc3ccccc3)cc2C1=O
  A1 apoptosis 2: 0.4
smiles: C[C@H]1CN([C@@H](C)CO)C(=O)c2cc(NS(=O)(=O)c3ccc(F)cc3)ccc2O[C@@H]1CN(C)Cc1ccc2c(c1)OCO2
  A1 apoptosis 2: -1.3
smiles: C[C@H](CO)N1C[C@H](C)[C@@H](CN(C)C(=O)Nc2cccc3ccccc23)Oc2c(NC(=O)Nc3cccc4ccccc34)cccc2C1=O
  A1 apoptosis 2: 0.1

Looked up one by one from above (7):
smiles: Cc1noc(C)c1NC(=O)N(C)C[C@H]1Oc2ccc(NS(=O)(=O)c3ccc(F)cc3)cc2CC(=O)N([C@@H](C)CO)C[C@@H]1C
  A1 apoptosis 2: 1.3
smiles: Cc1noc(C)c1NC(=O)Nc1ccc2c(c1)C(=O)N([C@@H](C)CO)C[C@H](C)[C@H](CN(C)Cc1ccccc1)OCCCC[C@@H](C)O2
  A1 apoptosis 2: -0.4
smiles: C[C@H](CO)N1C[C@H](C)[C@@H](CN(C)Cc2ccc3c(c2)OCO3)OCCCC[C@H](C)Oc2ccc(NC(=O)Nc3ccccc3)cc2C1=O
  A1 apoptosis 2: 0.4
smiles: Cc1ccc(S(=O)(=O)Nc2cccc3c2O[C@@H](CN(C)Cc2ccc(Cl)c(Cl)c2)[C@H](C)CN([C@@H](C)CO)C3=O)cc1
  A1 apoptosis 2: -0.1
smiles: C[C@@H]1CN([C@@H](C)CO)C(=O)c2cc(NS(=O)(=O)c3cccs3)ccc2O[C@@H](C)CCCCO[C@@H]1CN(C)S(=O)(=O)c1ccccc1
  A1 apoptosis 2: 0.8
smiles: C[C@H]1CN([C@@H](C)CO)C(=O)c2cccc(NC(=O)NC3CCCCC3)c2O[C@H]1CN(C)Cc1ccncc1
  A1 apoptosis 2: -0.1
smiles: C[C@H]1CN([C@@H](C)CO)C(=O)c2cc(NS(=O)(=O)c3ccc(F)cc3)ccc2O[C@@H]1CN(C)Cc1ccc2c(c1)OCO2
  A1 apoptosis 2: -1.3

Further structures follow.
smiles: [N-]=[N+]=Nc1cccc(C(=O)NCCc2c[nH]c3ccccc23)c1
  A1 apoptosis 2: 0.8
smiles: C[C@H](CO)N1C[C@H](C)[C@@H](CN(C)S(=O)(=O)c2ccc3ccccc3c2)OCc2cnnn2CCCC1=O
  A1 apoptosis 2: 0.9
smiles: C[C@@H]1CCCCO[C@@H](CN(C)C(=O)Nc2ccccc2)[C@@H](C)CN([C@H](C)CO)C(=O)c2cc(NC(=O)CCCN(C)C)ccc2O1
  A1 apoptosis 2: -0.9
smiles: C[C@H](CO)N1C[C@H](C)[C@H](CN(C)Cc2ccc3c(c2)OCO3)OCCCC[C@H](C)Oc2ccc(NS(=O)(=O)c3ccccc3)cc2C1=O
  A1 apoptosis 2: -0.4
smiles: Cc1ccc(S(=O)(=O)Nc2ccc3c(c2)C(=O)N([C@@H](C)CO)C[C@@H](C)[C@@H](CN(C)S(C)(=O)=O)O3)cc1
  A1 apoptosis 2: 0.4
smiles: C[C@@H]1CCCCO[C@@H](CN(C)C(=O)Nc2ccc(F)cc2)[C@@H](C)CN([C@H](C)CO)C(=O)c2cc(NC(=O)Cc3ccccc3)ccc2O1
  A1 apoptosis 2: -0.7
smiles: C[C@@H]1CN([C@H](C)CO)C(=O)c2cccc(NC(=O)CCCCCC(=O)Nc3ccccc3N)c2O[C@@H]1CN(C)C
  A1 apoptosis 2: 0.4
smiles: Cc1noc(C)c1NC(=O)N(C)C[C@H]1Oc2ccc(NC(=O)Nc3ccc4c(c3)OCO4)cc2C(=O)N([C@@H](C)CO)C[C@H]1C
  A1 apoptosis 2: -0.2
smiles: C[C@@H]1CN([C@H](C)CO)C(=O)c2cc(NS(C)(=O)=O)ccc2O[C@H]1CN(C)C(=O)Nc1ccc2c(c1)OCO2
  A1 apoptosis 2: -0.4
smiles: Cc1noc(C)c1S(=O)(=O)Nc1cccc2c1O[C@H](CN(C)Cc1ccc(C(F)(F)F)cc1)[C@H](C)CN([C@@H](C)CO)C2=O
  A1 apoptosis 2: 1.6

smiles: CNC[C@H]1OCCCC[C@H](C)Oc2ccc(NC(=O)Nc3cccc4ccccc34)cc2C(=O)N([C@H](C)CO)C[C@@H]1C
  A1 apoptosis 2: 0.9
smiles: C[C@@H]1CN([C@@H](C)CO)C(=O)c2cc(NS(=O)(=O)c3cccs3)ccc2O[C@H]1CN(C)S(=O)(=O)c1cccs1
  A1 apoptosis 2: -0.1
smiles: C[C@@H]1CN([C@@H](C)CO)C(=O)c2cc(NC(=O)Nc3ccc(F)cc3)ccc2O[C@@H](C)CCCCO[C@H]1CN(C)C(=O)c1ccccc1
  A1 apoptosis 2: 0.5
smiles: CNC[C@H]1OCCCC[C@@H](C)Oc2ccc(NC(=O)c3ccncc3)cc2C(=O)N([C@H](C)CO)C[C@@H]1C
  A1 apoptosis 2: 0.1
smiles: C[C@H](CO)N1C[C@H](C)[C@H](CN(C)C(=O)CCC(F)(F)F)OCCCC[C@H](C)Oc2ccc(NC(=O)c3ccncc3)cc2C1=O
  A1 apoptosis 2: 0.2
smiles: C[C@H]1CN([C@@H](C)CO)C(=O)c2cccc(N(C)C)c2O[C@@H]1CN(C)S(C)(=O)=O
  A1 apoptosis 2: -0.3
smiles: CNC[C@@H]1OCc2cn(nn2)CCCC(=O)N([C@@H](C)CO)C[C@H]1C
  A1 apoptosis 2: 0.5
smiles: CC(C)NC(=O)N(C)C[C@H]1OCCCC[C@H](C)Oc2ccc(NC(=O)c3ccncc3)cc2C(=O)N([C@H](C)CO)C[C@@H]1C
  A1 apoptosis 2: 0.3
smiles: C[C@H](CO)N1C[C@H](C)[C@H](CN(C)Cc2ccc(C(=O)Nc3ccccc3N)cc2)Oc2c(NC(=O)c3nc4ccccc4s3)cccc2C1=O
  A1 apoptosis 2: -1.6
smiles: Cc1noc(C)c1S(=O)(=O)N(C)C[C@H]1Oc2ccc(NC(=O)Nc3ccc(F)cc3)cc2CC(=O)N([C@H](C)CO)C[C@@H]1C
  A1 apoptosis 2: 0.7

smiles: Cc1noc(C)c1S(=O)(=O)N(C)C[C@@H]1Oc2ccc(NC(=O)Cc3cn(C)c4ccccc34)cc2CC(=O)N([C@H](C)CO)C[C@H]1C
  A1 apoptosis 2: -0.3
smiles: C[C@H]1CN([C@@H](C)CO)C(=O)Cc2cc(NS(=O)(=O)c3cn(C)cn3)ccc2O[C@@H]1CN(C)Cc1ccccc1
  A1 apoptosis 2: -1.1
smiles: C[C@@H]1CN([C@H](C)CO)C(=O)c2cc(NS(=O)(=O)c3cn(C)cn3)ccc2O[C@@H](C)CCCCO[C@@H]1CN(C)Cc1ccccc1
  A1 apoptosis 2: -1.4
smiles: C[C@@H]1CN([C@@H](C)CO)C(=O)Cc2cc(NC(=O)Nc3ccc(F)cc3)ccc2O[C@@H]1CN(C)C(=O)Nc1cccc2ccccc12
  A1 apoptosis 2: 0.6
smiles: Cc1noc(C)c1S(=O)(=O)Nc1ccc2c(c1)C(=O)N([C@@H](C)CO)C[C@@H](C)[C@H](CN(C)C(=O)c1ccccc1)OCCCC[C@@H](C)O2
  A1 apoptosis 2: 0.0
smiles: C[C@H]1CN([C@@H](C)CO)C(=O)c2cc(NS(=O)(=O)c3ccc(Cl)cc3)ccc2O[C@@H]1CN(C)Cc1ccc2c(c1)OCO2
  A1 apoptosis 2: 0.2
smiles: COc1ccc(CN(C)C[C@H]2Oc3ccc(NC(=O)Nc4ccc(C(F)(F)F)cc4)cc3CC(=O)N([C@@H](C)CO)C[C@H]2C)cc1
  A1 apoptosis 2: 0.8
smiles: C[C@H](CO)N1C[C@H](C)[C@H](CN(C)Cc2ccc(Cl)c(Cl)c2)Oc2c(NS(=O)(=O)c3ccccc3)cccc2C1=O
  A1 apoptosis 2: 1.2
smiles: COc1ccc(NC(=O)Nc2ccc3c(c2)C(=O)N([C@@H](C)CO)C[C@@H](C)[C@H](CN(C)Cc2ccc4c(c2)OCO4)OCCCC[C@@H](C)O3)cc1
  A1 apoptosis 2: -0.2
smiles: C[C@H](CO)N1C[C@H](C)[C@@H](CN(C)Cc2ccc3c(c2)OCO3)Oc2ccc(NC(=O)C3CC3)cc2C1=O
  A1 apoptosis 2: -0.8

Laid out differently: results already given.
| Molecule | A1 apoptosis 2 |
| --- | --- |
| C[C@@H]1CN([C@@H](C)CO)C(=O)Cc2cc(NC(=O)Nc3ccc(F)cc3)ccc2O[C@@H]1CN(C)C(=O)Nc1cccc2ccccc12 | 0.6 |
| Cc1noc(C)c1S(=O)(=O)Nc1ccc2c(c1)C(=O)N([C@@H](C)CO)C[C@@H](C)[C@H](CN(C)C(=O)c1ccccc1)OCCCC[C@@H](C)O2 | 0.0 |

(listing goes on)
smiles: C[C@H]1CN([C@@H](C)CO)C(=O)c2cccc(NC(=O)C3CCOCC3)c2O[C@@H]1CN(C)Cc1ccncc1
  A1 apoptosis 2: 0.6
smiles: C[C@H](CO)N1C[C@H](C)[C@H](CN(C)S(=O)(=O)c2ccccc2)Oc2ncc(-c3cccc(C(F)(F)F)c3)cc2C1=O
  A1 apoptosis 2: -0.3
smiles: Cc1noc(C)c1S(=O)(=O)N(C)C[C@@H]1Oc2c(NC(=O)c3ccc(-c4nccs4)cc3)cccc2C(=O)N([C@H](C)CO)C[C@@H]1C
  A1 apoptosis 2: -0.7
smiles: Cc1noc(C)c1S(=O)(=O)N(C)C[C@@H]1Oc2ccc(NC(=O)NC(C)C)cc2CC(=O)N([C@@H](C)CO)C[C@@H]1C
  A1 apoptosis 2: -0.5
smiles: Cc1noc(C)c1NC(=O)N(C)C[C@@H]1Oc2ccc(NC(=O)NC(C)C)cc2CC(=O)N([C@@H](C)CO)C[C@@H]1C
  A1 apoptosis 2: 0.2
smiles: C[C@H]1CN([C@@H](C)CO)C(=O)c2cc(NC(=O)Nc3ccc4c(c3)OCO4)ccc2O[C@@H]1CN(C)CC1CCCCC1
  A1 apoptosis 2: 2.1
smiles: C[C@@H]1CN([C@H](C)CO)C(=O)Cc2cc(NC(=O)Cc3ccccc3)ccc2O[C@H]1CN(C)Cc1ccc(C(F)(F)F)cc1
  A1 apoptosis 2: -1.5
smiles: C[C@H]1CN([C@@H](C)CO)C(=O)c2cccc(NC(=O)Nc3ccc(C(F)(F)F)cc3)c2O[C@@H]1CN(C)Cc1ccc(C(F)(F)F)cc1
  A1 apoptosis 2: -2.0
smiles: COc1ccc(S(=O)(=O)N(C)C[C@@H]2OCCCC[C@H](C)Oc3ccc(NC(=O)Nc4ccc(C(F)(F)F)cc4)cc3C(=O)N([C@H](C)CO)C[C@@H]2C)cc1
  A1 apoptosis 2: -1.1
smiles: C[C@H](CO)N1C[C@H](C)[C@H](CN(C)S(=O)(=O)c2cccc(F)c2)Oc2ncc(-c3ccccc3)cc2C1=O
  A1 apoptosis 2: 1.5
smiles: C[C@H](CO)N1C[C@H](C)[C@H](CN(C)C(=O)Nc2ccccc2)Oc2ccc(NC(=O)CCCCCC(=O)Nc3ccccc3N)cc2CC1=O
  A1 apoptosis 2: 0.4
smiles: C[C@H](CO)N1C[C@H](C)[C@@H](CN(C)Cc2ccc(Oc3ccccc3)cc2)Oc2ccc(N(C)C)cc2C1=O
  A1 apoptosis 2: -1.5

Some of the compounds tested; count on the stated rates, not on these rows.
